Env fusion inh: blocks HIV Env-driven cell-cell fusion; HeLa-JRFL Env/CEM21 cell fusion, luciferase; inhibition, % at 12.3 µM; 360,000 compounds, 1.1% hits;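 active = mean replicate inhibition score of at least 50 and every replicate individually at or above 50; inconclusive = only one of the two criteria met; inactive = mean below 50 and not all replicates reaching 50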;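 also: 0% = plate neutral controls and 100% = maraviroc near 300 nM; one replicate is shown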
MT1-MMP act inh: blocks activation of human MT1-MMP | P50281 | HT1080 RFP-PRO-GFP cells, GFP/RFP ratio fluorescence, overnight; percent of plate control window, DMSO zero | GFP/RFP ratio change, % at 20 µM | 360,000 compounds, 0.061% hits;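 active = GFP/RFP ratio change of at least 30% with cell ATP level not reduced by more than half and red fluorescence within 50% of control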; also: strong numbers were not always called active
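Assay system: HT1080 cells carrying an RFP-PRO-GFP reporter | Dosing: Single dose of 20 µM compound, 1% DMSO final | Incubation: Cells overnight before dosing, compound overnight, 37 °C, 5% CO2 | Evaluation: GFP/RFP fluorescence ratio | Control set: DMSO and RFP-L50D-GFP cell wells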
MT1-MMP act inh RFP: recorded beside MT1-MMP act inh, whose call it bears; RFP signal change, %; measured here: RFP expression control read;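 0 = vehicle wells; hits needed this value within 50% of zero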
The depositor's hits bear a star; ? = inconclusive; & = joins results of further samples. These rows are one share of the data, so the mix of outcomes need not match the whole.

SMILES	Env fusion inh	MT1-MMP act inh	MT1-MMP act inh RFP
COC(=O)[C@@]12C[C@@H](CC(=O)NCCCCc3ccccc3)C(=O)N(CCc3ccc(OC)c(OC)c3)C1=CCC(C)(C)C2	1	-12	-22
Cc1onc(-c2c(F)cccc2Cl)c1C(=O)OCC(=O)N1C(C)CCCC1C (stereo not drawn)	16	-4	1
C[C@@H]1CN([C@@H](C)CO)C(=O)c2cc(NS(=O)(=O)c3ccc(F)cc3)ccc2O[C@@H](C)CCCCO[C@H]1CN(C)C(=O)NC1CCCCC1	-381	0	-3
Cc1n[nH]c2c([N+](=O)[O-])c(=O)[nH]c(=O)n12	-9	-1	6
Cc1ccccc1Oc1ccc2c(c1)[C@@H]1C[C@H](N(C)C(=S)Nc3ccc(F)cc3)[C@H]([C@H](C)O)C(=O)N1CC2	-110	-4	-8
CC(C)CNC(=O)C1C(=O)Nc2ccccc2C(=O)N1C(C)(C)C (stereo not drawn)	-18	-6	-1
CCCCOCCCNC(=O)C[C@@H]1C[C@@]2(C(=O)OC)CC(C)(C)CC=C2N(Cc2cccc3ccccc23)C1=O	17	-8	-12
CCCCCCCCN1C(=O)[C@H](CC(=O)N2CCCCC2)C[C@@]2(C(=O)OC)CC(C)(C)CC=C12	28	-19	-22
CCCC[C@@H]1CNC(=O)C(=O)N1CC1CCCCC1	-14	7	5
CC(C)C[C@H]1CNC(=S)N1C[C@H]1CCCN1C[C@H](CC(C)C)N1C[C@H](Cc2ccc(O)cc2)N(CC2CCCCC2)C1=S	42	-8	-14
CC1(c2nnnn2Cc2ccccc2)CCC(=O)N1C1CC1 (stereo not drawn)	14	7	4
O=C(NC1CCCC1)C1c2ccccc2OCC(=O)N1Cc1ccccc1 (stereo not drawn)	-60	4	3
Cc1cccc(C)c1NC(=O)C(C1CC1)n1c(-c2ccc(-c3ccccc3)cc2)nc2ccccc21 (stereo not drawn)	-23	5	4
Nc1[nH]c(C(=O)c2ccccc2)c(-c2ccccc2C(F)(F)F)c1C(=O)NCCc1cccs1	8	4	0
CC(=O)c1ccc(NC(=O)CN2c3cccc4cccc(c34)S2(=O)=O)cc1	-13	10	1
COc1ccc(O)cc1CN1CCN(c2ncc(Cc3ccccc3)cn2)CC1	2	10	-6
O=C(O)c1ccccc1C(=O)c1ccc2oc(=O)[nH]c2c1	-11	2	1
O=C(Cc1ccc(OCc2ccccc2)cc1)NCc1ccc2c(c1)OCO2	-77	1	2
NCC1OC(n2cnc3c(N)ncnc32)CC1O (stereo not drawn)	2	-1	0
O=C(Cc1ccccc1)c1ccc(O)cc1O	2	3	3
CC1(C)SC2c3ccccc3C(=O)N2C1C(=O)O (stereo not drawn)	2	-7	4
CCc1nc2c(OCc3cccc(Cl)c3)cccn2c1N(C)C(=O)CC(C)C	-7	-15	-18
COc1nc(=O)n(C2OC(CO)C(O)C2O)cc1C (stereo not drawn)	-9	-2	3
CCN(CC)CC(C)(C)C(=O)/C=C/c1ccc(/C=C/C(=O)C(C)(C)CN(CC)CC)cc1	55*	-21	-33
COc1cc2c(oc(=O)c3cc(C)cc(OC)c32)c2c(C3OC(C)C(O)C(C)(O)C3O)ccc(O)c12 (stereo not drawn)	56*	-1	6
COC(=O)C1=C(\O)CCCC/C=C\1C(=O)O	-4	2	1
CC(C)C[C@H]1CNC(=O)C(=O)N1C[C@H](Cc1ccc(O)cc1)NC(=O)CC12CC3CC(CC(C3)C1)C2	4	5	9
Nc1ccn([C@@H]2O[C@H](CNC(=O)[C@@H](Cc3cn(COCc4ccccc4)cn3)NC=O)[C@@H](O)[C@H]2O)c(=O)n1	1	0	5
Cc1ccc(-c2c(C(=O)c3ccc(Br)cc3)[nH]c(N)c2C(=O)NCc2ccc(Cl)cc2)cc1	15	4	4
CN(C)S(=O)(=O)c1ccc(/C(O)=C2/C(=O)C(=O)N(CCN3CCCCC3)C2c2cccnc2)cc1 (stereo not drawn)	3	0	0
COc1ccc([C@H]2CC(=O)C[C@@H](CCn3cc(CCc4ccccc4)nn3)O2)cc1	-25	4	5
CC(C)C[C@@H]1COc2cc(N3CCC[C@@H]3CO)ccc2S(=O)(=O)N1	-7	7	0
COC(=O)[C@]12CCCCC=C1N(Cc1ccco1)C(=O)[C@H](CC(=O)NCCc1ccccc1OC)C2	92*	-1	-1
Cc1ccc([C@H]2C(C(=O)O)=CCN2S(=O)(=O)c2ccc(C)cc2)cc1	?	-2	3
N#CC(CC(=O)c1ccc(Cl)cc1)c1ccccc1 (stereo not drawn)	3	4	1
CC1=C(C(=O)N2CCCCCC2)CC(CC(=O)NCCc2ccccn2)C(=O)N1CCCN1CCCC1=O (stereo not drawn)	-15	6	6
O=c1c(-c2ccccc2)nc2ccccc2n1C(CCc1ccccc1)c1nc2ccccc2[nH]1 (stereo not drawn)	-16	-21	-24
Cc1cc(CCNC=O)c(C)c2c1oc1ccccc12	27	-1	-2
COC(=O)C1C2OC(C(Br)C2Br)C1C(=O)OC (stereo not drawn)	15	-4	2
COc1ccc2c(c1)C(=O)O[C@@H](c1ccccc1)C[C@@H](O)C(=O)CC2	-1	2	6

Exported bar-delimited: part of the list above
molecule | Env fusion inh | MT1-MMP act inh | MT1-MMP act inh RFP
COc1cc2c(oc(=O)c3cc(C)cc(OC)c32)c2c(C3OC(C)C(O)C(C)(O)C3O)ccc(O)c12 (stereo not drawn) | 56* | -1 | 6
COC(=O)C1=C(\O)CCCC/C=C\1C(=O)O | -4 | 2 | 1
CC(C)C[C@H]1CNC(=O)C(=O)N1C[C@H](Cc1ccc(O)cc1)NC(=O)CC12CC3CC(CC(C3)C1)C2 | 4 | 5 | 9
Nc1ccn([C@@H]2O[C@H](CNC(=O)[C@@H](Cc3cn(COCc4ccccc4)cn3)NC=O)[C@@H](O)[C@H]2O)c(=O)n1 | 1 | 0 | 5
Cc1ccc(-c2c(C(=O)c3ccc(Br)cc3)[nH]c(N)c2C(=O)NCc2ccc(Cl)cc2)cc1 | 15 | 4 | 4
CN(C)S(=O)(=O)c1ccc(/C(O)=C2/C(=O)C(=O)N(CCN3CCCCC3)C2c2cccnc2)cc1 (stereo not drawn) | 3 | 0 | 0
COc1ccc([C@H]2CC(=O)C[C@@H](CCn3cc(CCc4ccccc4)nn3)O2)cc1 | -25 | 4 | 5
CC(C)C[C@@H]1COc2cc(N3CCC[C@@H]3CO)ccc2S(=O)(=O)N1 | -7 | 7 | 0
COC(=O)[C@]12CCCCC=C1N(Cc1ccco1)C(=O)[C@H](CC(=O)NCCc1ccccc1OC)C2 | 92* | -1 | -1
Cc1ccc([C@H]2C(C(=O)O)=CCN2S(=O)(=O)c2ccc(C)cc2)cc1 | ? | -2 | 3
N#CC(CC(=O)c1ccc(Cl)cc1)c1ccccc1 (stereo not drawn) | 3 | 4 | 1
CC1=C(C(=O)N2CCCCCC2)CC(CC(=O)NCCc2ccccn2)C(=O)N1CCCN1CCCC1=O (stereo not drawn) | -15 | 6 | 6
O=c1c(-c2ccccc2)nc2ccccc2n1C(CCc1ccccc1)c1nc2ccccc2[nH]1 (stereo not drawn) | -16 | -21 | -24
Cc1cc(CCNC=O)c(C)c2c1oc1ccccc12 | 27 | -1 | -2
COC(=O)C1C2OC(C(Br)C2Br)C1C(=O)OC (stereo not drawn) | 15 | -4 | 2
COc1ccc2c(c1)C(=O)O[C@@H](c1ccccc1)C[C@@H](O)C(=O)CC2 | -1 | 2 | 6

(list continues)
SMILES	Env fusion inh	MT1-MMP act inh	MT1-MMP act inh RFP
COC(=O)C[C@@H]1C=C[C@H](NC(=O)Nc2ccc(F)cc2)[C@@H](CO)O1	-24	2	6
CCCCCCCCN1C(=O)[C@H](CC(=O)NCC23CC4CC(CC(C4)C2)C3)C[C@@]2(C(=O)OC)CCCCC=C12	-6	-14	-17
Cc1nc2[nH]c(=O)n(O)c(=O)c2s1	-6	1	-4
CN(C)CCNc1ncnc2c1ncn2[C@H]1CN(Cc2cccnc2)C[C@@H](CO)O1	-10	4	4
CCNC(=O)C1(C)CCCN(Cc2cccc3ccccc23)C1 (stereo not drawn)	12	-2	5
O=C(NCCCCO)c1c(-c2ccccc2)oc2c1C(OCCCCCO)CCC2 (stereo not drawn)	7	6	5
O=C(COC(=O)COc1ccc(Cl)cc1Cl)NC1CCCC1	-3	-6	0
CCCCn1nnnc1C(c1cc2ccccc2o1)N1CCN(c2ncccc2C#N)CC1 (stereo not drawn)	-23	-9	-10
CC(C)C[C@H]1CN(CCCC[C@H]2CNC(=O)C(=O)N2CCc2ccccc2)C(=O)C(=O)N1CC1CCCCC1	?	2	2
CCNC(=O)C1(C)CCN(C(=O)c2c(-c3ccccc3)noc2C)C1 (stereo not drawn)	-2	1	5
CN(C)C(=O)C1=NOC2(C1)C(=O)Nc1ccccc12 (stereo not drawn)	-3	2	5
CN(Cc1ccc(Cl)c(Cl)c1)C(=O)c1ccccc1SCC(=O)N1CCCC1	10	1	-6
O=C(Cc1ccccc1)NS(=O)(=O)c1ccccc1	0	3	6
CCCc1c(-c2ccc(F)cc2F)ncn1Cc1ccccc1OC	43	0	-18
CC(C)CN1C(=O)CSCC1(C)C(=O)NCc1ccccc1 (stereo not drawn)	15	8	9
COC(=O)[C@]12CCCCC=C1N(Cc1cccc3ccccc13)C(=O)[C@H](CC(=O)N1CCN(C(=O)c3ccco3)CC1)C2	26	2	-3
CCc1nc(N)nc(N)c1-c1ccc(Cl)c(N=[N+]=[N-])c1	44	-10&-9	-1&0
CC(=NNC(=S)Nc1ccccc1)c1ccccn1	14	13	-2
COCCNC(=O)C1(C)CCCN(CCC(=O)c2ccc(Br)cc2)C1 (stereo not drawn)	-14	-1	7
CNC(=O)OCc1nc(SSC(C)(C)C)n(C)c1COC(=O)NC	-204	19	5
O=C(c1ccc(Cl)c(Cl)c1)N1CCC(=O)N([C@H](COCc2cccc(C(F)(F)F)c2)Cc2ccccc2)CC1	92*	-2	-14
COC(=O)[C@]12CCCCC=C1N(CCC1=CCCCC1)C(=O)[C@H](CC(=O)NCCC(C)C)C2	16	-7	-11
CCOC(=O)N1CCN(C(C(=O)NC2CCCC2)c2ccco2)CC1 (stereo not drawn)	7	-3	4
Cc1cc(NC(=O)NC(=O)c2ccccc2NC(=O)CN)ccc1Oc1ncc(Br)cn1	-51	17	0
O=C(NC1CCCC1)C1C(c2ccccc2)=Nc2ccccc2N1C(=O)c1cc(Cl)cc(Cl)c1 (stereo not drawn)	23	-32	-32
CCOC(=O)c1c(-c2ccc3ccccc3c2)csc1NC(=O)CCCC(=O)O	0	8	-7
COCCN1C(=O)CN(S(C)(=O)=O)CC1(C)C(=O)NC(C)C (stereo not drawn)	-13	16	7
CCOC(=O)[C@]12CCCC=C1N(CCC1=CCCCC1)C(=O)[C@H](CC(=O)NCc1cccc(C(F)(F)F)c1)C2	25	-3	-11
Cc1cc(C)n2c(Nc3ccc4c(c3)OCCO4)c(CCc3ccccc3)nc2n1	5	-4	-1
CCCCNC(=O)C[C@@H]1C[C@@]2(C(=O)OCC)CCCC=C2N(CCc2ccc(OC)c(OC)c2)C1=O	-14	-2	1
Clc1ccc(-c2nc3c4ccccc4ccn3c2CC2CCCCC2)cc1	27	-5	1
CCOC(=O)[C@]12CCC=C1N(Cc1ccc3c(c1)OCO3)C(=O)[C@H](CC(=O)NCCc1ccccc1OC)C2	21	3	-3
CC[C@@H]1CC2=C(C(=O)OC(C)(C)O2)[C@@H](CC)O1	10	5	8
Cc1cccc(C)c1N1C(=O)c2ccccc2NC(=O)C1C(=O)NCCc1ccccc1 (stereo not drawn)	18	5	5
COc1ccc2oc3c(ccc[n+]3C)c(=O)c2c1	8	0	5
CC1(C(=O)NCc2ccccc2)CN(S(C)(=O)=O)CC(=O)N1CC(F)(F)F (stereo not drawn)	-1	1	5
CCOC(=O)[C@]12CCCC=C1N(CCC1=CCCCC1)C(=O)[C@H](CC(=O)N1CCN(C(=O)c3ccco3)CC1)C2	-31	-2	-4
N#Cc1cccc(C(=O)C(=O)N2CCN(c3ccccc3)CC2)c1	-10	1	4
CCOC(=O)C1=CC[C@@H](c2ccccc2)N(S(=O)(=O)c2ccc(C)cc2)[C@@H]1C#N	4	8	-6
O=C(CCCCCCCC(=O)N1CCCCCC1)N1CCCCCC1	4	4	-6
Cc1cc2c(c(=O)o1)C1(C)CC(C)(O2)c2c(cc(C)oc2=O)O1	9	5	2
COC(=O)[C@]12CCCCC=C1N(Cc1ccccc1)C(=O)[C@H](CC(=O)NCc1ccccc1)C2	-16	3	1
CCOC(=O)[C@]12CCCC=C1N(Cc1cccc3ccccc13)C(=O)[C@H](CC(=O)NCC1CCCCC1)C2	-44	-8	-18
Cc1ccc(S(=O)(=O)SC/C=C/CSS(=O)(=O)c2ccc(C)cc2)cc1	2	4	4
O=C(NC1CCCC1)C1C(c2ccc(C(F)(F)F)cc2)=Nc2ccccc2N1C(=O)c1cccc2ccccc12 (stereo not drawn)	3	-26	-27
CCOC(=O)[C@]12CCCC=C1N(Cc1cccc3ccccc13)C(=O)[C@H](CC(=O)NCCc1ccccc1OC)C2	-100	-2	-10
CC(=O)c1ccc(S(=O)(=O)N(C)CC(=O)Nc2cc(C)on2)cc1	-35	0	1

Source: PubChem (several laboratories)
